E coli growth – E. coli growth inhibition, primary screen, OD600. Escherichia coli growth, 23 h; stronger effect = lower value. OD600 absorbance (test concentration not listed). actives 0.21% (n = 330,000). AID 1053175, 2014;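 active means OD600 absorbance below the run mean of sample wells minus 3.6 SD, in any replicate, cut at about 0.56 in these data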;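 further: stock transfer was 300 nL into about 60 µL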
FGF22 binding – binders of human FGF22 protein, primary screen, FGF22 synaptogenesis inhibitor project, biophysical, thermal shift, single point; Fibroblast growth factor 22 (Homo sapiens), Q9HCT0; recombinant FGF22 thermal shift, SYPRO orange fluorescence; percent of sucrose octasulfate shift, DMSO zero; calls only at 9.99 µM; actives 1.5% (n = 340,000);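 active means melting point raised past a set limit in the mean and every replicate; inconclusive means no clear call; three in four hits are not shown here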
Target sequence (Q9HCT0 whole entry, looked up): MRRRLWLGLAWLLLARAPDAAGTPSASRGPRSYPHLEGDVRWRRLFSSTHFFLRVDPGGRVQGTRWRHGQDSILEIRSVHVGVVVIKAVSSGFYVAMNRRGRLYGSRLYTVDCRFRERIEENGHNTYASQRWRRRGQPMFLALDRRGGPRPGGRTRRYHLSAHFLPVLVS
rRNA inh HTS – reduced GFP signal of wild-type E. coli, primary screen, bacterial rRNA inhibitor project, GFP/RFP fluorescence, OD600, single point; E. coli WT GFP vs humanized-ribosome RFP mutants, 24 h; stronger effect = lower value; DMSO median 0, no signal -100; GFP signal change (wild-type ribosome), % (concentration not given with the values); actives 1.6% (n = 350,000); AID 720706, 2013;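 active means significant combined selectivity score with lowered wild-type GFP, culture density cut under 30%, mutant RFP and density less affected; inactive means any of these conditions unmet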; further: one replicate is shown; some compounds called inactive have numbers as strong as hits
AF4-AF9 inh – inhibitors of AF4 peptide binding to AF9, primary screen, biochemical, AlphaScreen, biotin-AF4 peptide, FLAG-AF9, single point; Protein AF-9 (Homo sapiens), P42568; inhibition, % at 10 µM; actives 0.47% (n = 350,000); AID 651704, 2012;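 active means every replicate reaching a set inhibition limit, whatever the replicate mean, cut at about 25% in these data; inconclusive means mean inhibition reaches that limit but some replicates miss it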;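 further: 0% = plate neutral control median and 100% = total signal loss; the record names both 10 and 1 µM as test concentration; the first replicate is given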
HNF4A DNA FP – change in binding of human HNF4A to DNA, primary screen, biochemical, fluorescence polarization, FITC-DNA; Hepatocyte nuclear factor 4-alpha (Homo sapiens), P41235; activity change, % at 10 µM; AID 1224865, 2016; 1 h; actives 0.3% (n = 360,000); in the data active means activity change above about 30%, passing the limit was not always enough;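 further: controls were the assay level and a saturating level of protein; the project sought stronger binding though the title names inhibitors; some compounds called inactive have numbers as strong as hits; positive values seem to mean higher polarization but the record does not say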
Target sequence (P41235 whole entry, looked up): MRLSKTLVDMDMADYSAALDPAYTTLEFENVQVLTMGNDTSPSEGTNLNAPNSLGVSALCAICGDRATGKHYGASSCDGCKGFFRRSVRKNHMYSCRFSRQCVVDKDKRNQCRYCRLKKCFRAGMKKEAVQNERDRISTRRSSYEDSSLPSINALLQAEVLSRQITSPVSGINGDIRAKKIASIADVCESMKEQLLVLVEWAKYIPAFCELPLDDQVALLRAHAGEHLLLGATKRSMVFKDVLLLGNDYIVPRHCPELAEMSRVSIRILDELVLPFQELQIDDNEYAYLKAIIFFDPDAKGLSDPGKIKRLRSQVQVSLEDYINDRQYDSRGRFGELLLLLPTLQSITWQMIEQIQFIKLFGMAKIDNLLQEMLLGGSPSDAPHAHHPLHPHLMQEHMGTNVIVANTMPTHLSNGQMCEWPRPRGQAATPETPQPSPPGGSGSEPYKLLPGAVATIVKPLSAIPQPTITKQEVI
ALR H2O2 inh – inhibitors of human ALR sulfhydryl oxidase, primary screen, biochemical, H2O2 detection, HRP-luminol luminescence, single point. FAD-linked sulfhydryl oxidase ALR (Homo sapiens), P55789. purified ALR, DTT oxidation. inhibition, % (no concentration beside the values). actives 3.8% (n = 290,000). AID 485317, 2010;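 active means mean and each replicate at 75% or more; inconclusive means only one of the two met; inactive means neither met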;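 further: stock transfer was 7.5 nL into about 7.5 µL; 0% = neutral wells and 100% = wells with inactivated enzyme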
Target sequence (P55789 whole entry, looked up): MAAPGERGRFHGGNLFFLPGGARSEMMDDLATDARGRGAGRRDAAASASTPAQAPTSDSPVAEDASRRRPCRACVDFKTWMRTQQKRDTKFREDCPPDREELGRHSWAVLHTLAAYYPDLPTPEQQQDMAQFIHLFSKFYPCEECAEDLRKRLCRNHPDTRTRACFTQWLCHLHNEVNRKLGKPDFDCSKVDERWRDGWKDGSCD
Vif TR-FRET – inhibitors of Vif binding to APOBEC3G peptide, primary screen, biochemical, TR-FRET, GST-Vif 1-94, biotin-A3G peptide, dose response retest (AID 1117319); Virion infectivity factor (Human immunodeficiency virus type 1 group M subtype B (isolate …; TR-FRET GST-Vif / biotin-A3G peptide binding; higher % means a stronger effect; test concentration not given here; strong numbers were not always called active; inhibition, %, or IC50 in µM where a hit was titrated; actives 0.57% (n = 260,000);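 active means above the screen mean plus three standard deviations and confirmed in dose response; inconclusive means results disagree or hit not tested in dose response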;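 further: Vif residues 1-94 fused to GST binding biotinylated APOBEC3G peptide 110-148; 0% = full assay without inhibitor and 100% = GST in place of GST-Vif; retest series ran down from 100 µM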
rRNA inh HTS OD600 – second read-out of rRNA inh HTS, no call of its own (marks repeat the call); OD600 change, %; measured here: OD600 growth;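 optical density of the mix in the first replicate; 0 = DMSO median and -100 = no signal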
rRNA inh HTS RFP – further read-out of rRNA inh HTS, marked with its call; RFP signal change, %; measured here: RFP humanized mutant strains;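 first replicate; 0 = DMSO median and -100 = no signal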
An asterisk follows results filed as active; i = inactive; ? = inconclusive; / = no result given; & = joins results of further samples. The list is partial, so the mix of outcomes need not match the whole.

Order of results – E coli growth	AF4-AF9 inh	ALR H2O2 inh	FGF22 binding	rRNA inh HTS	rRNA inh HTS OD600	rRNA inh HTS RFP	HNF4A DNA FP	Vif TR-FRET
> COc1ccc(CN(CC(=O)NCCC(C)C)C(=O)CCC(=O)Nc2nccs2)cc1
  0.63	-12	-3	i	2	5	1.5	1.9	1%
> C[C@@H]1CN([C@H](C)CO)C(=O)c2cc(NC(=O)CCC(F)(F)F)ccc2O[C@@H]1CN(C)C(=O)Nc1ccc2c(c1)OCO2
  /	0.0	/	i	-1	12	-0.1	/	/
> CCOc1ccc2nc(-c3ccccc3)nc(SCC(=O)Nc3ncc(C)s3)c2c1
  0.74	/	-11	/	/	/	/	-2.6	6%
> CN(C)S(=O)(=O)n1cc(/C=C(\NC(=O)c2ccccc2)C(=O)N2CCCCC2)c2ccccc21
  /	-0.6	/	i	-1	-9	0.6	0.5	2%
> Cc1ccc(Cn2c(C)c3cnn(CC(=O)NC4CCCC4)c(=O)c3c2C)cc1
  0.71	-14	-12	i	3	8	-0.1	1.7	/
> Cn1cc(C(=O)C(=O)N2CCc3ccccc32)c2ccccc21
  0.74	1.4	-2	i	7	-1	1.7	-1.2	/
> COc1ccc(OC)c(S(=O)(=O)N2CCC(C(=O)NC3CCCC3)CC2)c1
  0.7	-4.4	2	i	2	4	0.9	-4.0	/
> COc1ccc(OC)c(/C=C/C(=O)OCC(=O)N2CCCC2)c1
  0.71	-0.2	-6	i	2	1	-0.7	-0.6	/
> CCN(CC)CCCN(Cc1cc2cc3c(cc2[nH]c1=O)OCO3)C(=O)Nc1ccccc1OC
  0.7	/	-14	/	/	/	/	-0.9	27%&-3%
> Cc1ccc(C)c(C(=O)COC(=O)c2ccccc2N2C(=O)C3C4CCC(C4)C3C2=O)c1 (stereo not drawn)
  0.65	/	-43	/	/	/	/	6.7	10%
> C[C@@H]1CN([C@@H](C)CO)C(=O)c2cccc(NC(=O)c3ccc(-c4nccs4)cc3)c2O[C@@H]1CN(C)S(C)(=O)=O
  /	-1.7	/	i	-2	11	-1.8	/	/
> COc1ccc(CCn2c(-c3cc([N+](=O)[O-])cc([N+](=O)[O-])c3)nc3nc4ccccc4nc32)cc1
  0.65	/	-34	/	/	/	/	2.4	7%
> O=C(NCCN1C(=O)S/C(=C\c2ccccc2F)C1=O)C1CCN(S(=O)(=O)c2cccs2)CC1
  0.72	1.1	-2	i	6	0	1.3	0.5	-10%
> O=C(CSc1ccccc1)Nc1cccc(S(=O)(=O)N2CCCC2)c1
  0.69	/	-9	/	/	/	/	1.2	/
> Cc1ccc(-c2ccc3c(c2)O[C@@H](CN(C)S(C)(=O)=O)[C@H](C)CN([C@@H](C)CO)S3(=O)=O)cc1
  /	1.2	/	i	-7	-23	-2.5	/	/
> O=C(/C(=N\O)n1cncn1)c1ccc(Cl)cc1Cl
  /	-2.3	-2	/	7	-5	-1.9	-4.7	2%
> COC(=O)[C@H]1[C@H](CO)[C@H]2Cn3c(ccc(-c4ccncc4)c3=O)[C@H]2N1Cc1cccc(F)c1
  /	0.3	/	i	0	-4	3.6	/	/
> CC(C)CCN1C(=O)c2ccc(C(=O)Nc3ccccc3C(=O)O)cc2C1=O
  0.67	0.8	98*	i	-15	-30	-4.4	3.5	-11%
> COc1nc(NCc2ccco2)nc(N2CCC(C)CC2)n1
  0.76	/	/	/	/	/	/	-2.6	6%
> Cc1oc(-c2ccccc2F)nc1CS(=O)(=O)CC(=O)NCCCc1ccccc1
  0.79	-3.1	-1	i	0	2	-0.9	3.9	-1%

The last three records of the section before open the next one:
Order of results – E coli growth	AF4-AF9 inh	ALR H2O2 inh	FGF22 binding	rRNA inh HTS	rRNA inh HTS OD600	rRNA inh HTS RFP	HNF4A DNA FP	Vif TR-FRET
> CC(C)CCN1C(=O)c2ccc(C(=O)Nc3ccccc3C(=O)O)cc2C1=O
  0.67	0.8	98*	i	-15	-30	-4.4	3.5	-11%
> COc1nc(NCc2ccco2)nc(N2CCC(C)CC2)n1
  0.76	/	/	/	/	/	/	-2.6	6%
> Cc1oc(-c2ccccc2F)nc1CS(=O)(=O)CC(=O)NCCCc1ccccc1
  0.79	-3.1	-1	i	0	2	-0.9	3.9	-1%
> COc1ccc2[nH]c(=O)c(CN(CCc3ccccc3)C(C)=O)cc2c1
  0.7	/	-15	/	/	/	/	0.9	7%
> CCc1cccc(CC)c1NC(=S)NCC(c1cccnc1)N(C)C (stereo not drawn)
  0.68	-1.0	-3	i	16	18	1.5	-1.7	9%
> CCOc1ccccc1-n1c(=S)sc2c(=O)n(-c3ccc(F)cc3)c(SCC(=O)O)nc21
  0.65	-0.4	/	i	7	-1	-0.3	-1.4	2%
> O=C(NCCc1ccccc1)c1cc(=O)c2ccccc2o1
  0.69	-1.5	-7	i	2	-2	2.1	4.3	/
> COc1ccc(Cc2nnc(NCCO)[nH]c2=O)cc1OC
  0.73	-1.6	-3	i	46	-1	1.0	1.7	-8%
> C[C@@H]1CN([C@@H](C)CO)C(=O)c2cc(NS(=O)(=O)c3ccc(Cl)cc3)ccc2O[C@@H](C)CCCCO[C@@H]1CN(C)Cc1ccc(C(=O)O)cc1
  /	-1.1	/	i	-2	-4	-2.5	/	/
> CO[C@@H]1CN(C)C(=O)c2ccc(NC(=O)C3CCCCC3)cc2OC[C@@H](C)N(C(=O)Nc2ccc(C(F)(F)F)cc2)C[C@H]1C
  /	5.5	/	i	-4	-1	4.7	/	/
> CCOC(=O)[C@@H]1[C@H]2COc3ccc(Br)cc3[C@@H]2N2C(=O)N(c3cccc(Cl)c3)C(=O)[C@@]12C
  /	-1.5	0	i	0	6	-9.8	-2.7	/
> O=C(CCS(=O)(=O)c1ccccc1)Nc1nc(-c2cccs2)cs1
  0.67	3.7	-4	i	-9	-8	0.7	5.3	/
> COc1ccc2c3c([nH]c2c1)[C@@H](CO)N(C(=O)c1cccnc1)CC31CN(C(=O)c2cccnc2)C1
  /	-0.7	/	i	3	9	0.2	/	/

Given with each value named: four of the compounds above
O=C(NCCc1ccccc1)c1cc(=O)c2ccccc2o1
  E coli growth = 0.69	AF4-AF9 inh = -1.5	ALR H2O2 inh = -7	FGF22 binding = i	rRNA inh HTS = 2	rRNA inh HTS OD600 = -2	rRNA inh HTS RFP = 2.1	HNF4A DNA FP = 4.3	Vif TR-FRET = /
COc1ccc(Cc2nnc(NCCO)[nH]c2=O)cc1OC
  E coli growth = 0.73	AF4-AF9 inh = -1.6	ALR H2O2 inh = -3	FGF22 binding = i	rRNA inh HTS = 46	rRNA inh HTS OD600 = -1	rRNA inh HTS RFP = 1.0	HNF4A DNA FP = 1.7	Vif TR-FRET = -8%
C[C@@H]1CN([C@@H](C)CO)C(=O)c2cc(NS(=O)(=O)c3ccc(Cl)cc3)ccc2O[C@@H](C)CCCCO[C@@H]1CN(C)Cc1ccc(C(=O)O)cc1
  E coli growth = /	AF4-AF9 inh = -1.1	ALR H2O2 inh = /	FGF22 binding = i	rRNA inh HTS = -2	rRNA inh HTS OD600 = -4	rRNA inh HTS RFP = -2.5	HNF4A DNA FP = /	Vif TR-FRET = /
CO[C@@H]1CN(C)C(=O)c2ccc(NC(=O)C3CCCCC3)cc2OC[C@@H](C)N(C(=O)Nc2ccc(C(F)(F)F)cc2)C[C@H]1C
  E coli growth = /	AF4-AF9 inh = 5.5	ALR H2O2 inh = /	FGF22 binding = i	rRNA inh HTS = -4	rRNA inh HTS OD600 = -1	rRNA inh HTS RFP = 4.7	HNF4A DNA FP = /	Vif TR-FRET = /

Other compounds
Order of results – E coli growth	AF4-AF9 inh	ALR H2O2 inh	FGF22 binding	rRNA inh HTS	rRNA inh HTS OD600	rRNA inh HTS RFP	HNF4A DNA FP	Vif TR-FRET
> Cc1ccc(-n2nc3c(=O)n(CCCC(=O)NCc4ccc(Cl)cc4)nc(C)c3c2C)cc1
  0.72	-2.4	0	i	2	1	-0.4	3.0	/
> CCOC(=O)C1CCCN(CCC(=O)Nc2ccccc2)C1 (stereo not drawn)
  0.71	/	-14	/	/	/	/	-6.9	3%
> Cc1ccc(/C(O)=C2\C(=O)C(=O)N(C)C2c2ccc(Br)cc2)cc1 (stereo not drawn)
  0.68	3.5	5	i	0	-6	-1.2	-2.4	/
> Cc1cc(NC(=O)CC2CCCC2)ccc1Br
  0.61	0.1	-3	i	-67	-82	-21	2.0	/
> CC(=O)Nc1ccc(C(=O)OCC(=O)NC(=O)NCc2ccccc2)cc1
  /	1.0	/	i	-5	-2	13	-4.1	/
> O=C(NCCCCc1ccccc1)C1CC(c2ccc([N+](=O)[O-])cc2)=NO1 (stereo not drawn)
  0.67	/	1	i	-2	-9	-8.2	0.7	-3%
> Cc1cnc(C(=O)Nc2ccc(C)c(S(=O)(=O)N3CCCCCC3)c2)cn1
  0.69	1.1	/	i	7	14	1.7	3.5	9%
> C[C@H](CO)N1C[C@H](C)[C@H](CN(C)C(=O)Nc2ccc(C(F)(F)F)cc2)Oc2ccc(NC(=O)c3ccncc3)cc2C1=O
  /	-0.2	/	i	-10	-6	1.1	/	/
> C[C@H]1CN([C@@H](C)CO)S(=O)(=O)c2ccc(-c3ccc(F)cc3)cc2O[C@H]1CN(C)C(=O)C1CCCCC1
  /	3.6	/	i	-8	-18	9.4	/	/
> COc1ccccc1C(=O)N1CCNC(=O)C1CC(=O)Nc1ccc(Cl)cc1 (stereo not drawn)
  0.79	/	-22	/	/	/	/	1.3	4%
> O=C(NCCCN=C1NS(=O)(=O)c2ccccc21)c1ccco1
  0.68	1.5	-3	i	2	1	-10	-5.0	3%
> COc1ccc(NC(=O)Cc2nnc(SCC(=O)NC3CCCC3)n2C)cc1
  0.7	-0.3	-14	i	5	2	-0.5	5.3	/
> CN1CCN(c2ccc(S(=O)(=O)N3CCCCC3)cc2NC(=O)COc2ccc([N+](=O)[O-])cc2)CC1
  0.64	-2.8	-3	i	8	17	1.2	-1.3	-1%
> CC(C)CN(C(=O)CSc1nc2ccccc2[nH]1)C1CCS(=O)(=O)C1 (stereo not drawn)
  0.7	-18	/	i	0	-3	-2.1	0.3	/
> CC1CN=C(Nc2cccc(S(=O)(=O)N(C)C)c2)S1 (stereo not drawn)
  0.66	-0.2	-14	i	9	2	2.9	-1.9	/
> O=S(=O)(O)c1nc2ccccc2n1Cc1ccccc1
  0.69	/	-4	/	/	/	/	2.0	5%
> COc1cc(C2C(C#N)=C(N)N(c3cccnc3)C3=C2C(=O)CC(C)(C)C3)ccc1O (stereo not drawn)
  0.73	/	52	/	/	/	/	3.2	?
> Cc1ccc(CN(C)C(=O)C2CCC(=O)N(CC3CCCCC3)C2)o1 (stereo not drawn)
  0.71	-2.1	-3	i	2	7	3.7	0.7	-7%
> CN(C)c1nnnn1-c1ccc(Oc2ncc(C(F)(F)F)cc2Cl)cc1
  0.64	-2.1	0	i	-18	-20	-3.6	1.0	/
> Cc1nc2nc(C)c(CCC(=O)N3CCOCC3)c(C)n2n1
  0.65	/	-3	/	/	/	/	-2.6	?
> CO[C@H](CN(C)CC1CCOCC1)[C@H](C)CN(C(=O)Nc1ccc(F)cc1)[C@@H](C)CO
  /	0.0	/	i	0	-3	-1.8	/	/
